Source: PubChem
CapD inh = CapD enzyme inhibition; purified CapD enzyme, fluorescence intensity read-out; stronger effect = lower value; some hits fall short of the stated cut; z-score (concentration not given with the values); 0.23% of 140,000 active; AID 492967;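 active = z-score under -4 in either of two replicates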;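 note: stock transfer was 100 nL into about 40 µL; score is relative to mean and spread of the plate; one replicate is shown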
AID504770 = growth inhibitors of E. coli YBA685 in a screen for V. cholerae RctB (chromosome II replication) inhibitors | E. coli YBA685 rctB-dependent plasmid, OD600 growth, 3 h; stronger effect = lower value | z-score (test concentration not listed) | 0.27% of 130,000 active;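 active = z-score under -2 on both plates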;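 note: wells of about 30 µL received 100 nL stock; score is relative to mean and SD of the test wells; the first replicate is given; strong numbers were not always called active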
Active calls of the source: *; nt = no result given.

Below each SMILES – CapD inh	AID504770
- C=C(C1CC1)N(C(=O)c1ccc(F)cc1)c1ccc(OC)cc1
  0.47	0.05
- CCC(=O)N1c2ccccc2N=C(c2ccccc2)CC1c1ccccc1 (stereo not drawn)
  -0.46	-0.1
- O=C(NCCc1ccccc1)C1CC(=O)N(C2CCCCCC2)C1 (stereo not drawn)
  -1.7	-0.5
- CCCN(C1CCN(C)CC1)S(=O)(=O)c1ccc(Cl)cc1
  -0.53	nt
- CC1CCC(NC(=O)Cn2c3ccccc3c3cn[nH]c(=O)c32)CC1 (stereo not drawn)
  0	-0.45
- COc1ccc(OCC(O)CNC(=O)Nc2cc(F)ccc2C)cc1 (stereo not drawn)
  1	-0.3
- COc1ccc(C(=O)NCCc2cc3ccc(C)cc3[nH]c2=O)c(OC)c1
  2.2	-1
- CN1CC(=O)N(CC(=O)c2ccc(Cl)s2)C1=O
  nt	0.95
- CCCCSc1nnc2c(n1)OC(C)(CC)Nc1ccccc1-2 (stereo not drawn)
  0.22	nt
- Cc1csc(CC(N)=S)n1
  nt	-1.6
- Cc1ccc(N(C(=O)c2ccc(Br)o2)C(=O)N2CCCCC2)cc1
  nt	1.6
- CC(=O)Nc1cc2c(cc1[N+](=O)[O-])OCCOCCOc1ccc([N+](=O)[O-])cc1OCCOCCO2
  -1.2	nt
- O=C(NCc1cccc(C(F)(F)F)c1)c1ccc(OCc2cccc(Cl)n2)cc1
  -0.27	nt
- CCOC(=O)CC1(O)CSc2nc3sc4c(c3c(=O)n21)CCCC4 (stereo not drawn)
  nt	-0.1
- O=C(Nc1ccc2c(c1)OCO2)C12CC3CC(CC(O)(C3)C1)C2
  nt	-0.5
- O=C1Cc2cc(C(=O)Cn3nc(C(=O)O)c4ccccc4c3=O)ccc2N1
  nt	-0.05
- O=C1CCCc2c1cc(C(=O)Nc1ccccc1)c(=O)n2-c1ccccc1
  -0.45	1.3
- CCCCc1oc2ccccc2c1CNC
  nt	0.25
- C=CCn1nc2n(c1=O)-c1ccccc1SC2
  -0.095	-0.3
- O=C(CCN1C(=O)C2CC=CCC2C1=O)Nc1nnc(C2CC2)s1 (stereo not drawn)
  nt	2
- Cc1c(N)cccc1-n1c(C)ccc1C
  nt	-0.55
- CCn1c(=O)cc(SCC(=O)NCCCN2CCN(C)CC2)c2ccccc21
  11	0.45
- COc1ccc(NC(=O)c2sc3ncn(CC(=O)Nc4cccc(C(F)(F)F)c4)c(=O)c3c2C)cc1OC
  -0.76	nt
- Cc1ccc(S(=O)(=O)NC(=O)NCCSCc2ccco2)cc1
  0.15	nt
- CCCCN(Cc1cc2cc(OC)ccc2[nH]c1=O)C(=O)c1cccc(Cl)c1
  19	-0.45
- O/N=C/c1cccc(Oc2ccccc2)c1
  nt	-1.6
- O=C(Nc1cccn2ncnc12)c1cccc(C(F)(F)F)c1
  -0.005	-0.55
- O=C1c2c(Cl)c(Cl)c(Cl)c(Cl)c2C(=O)N1C1C(=O)N(c2cc(Cl)cc(Cl)c2)C1c1cccs1 (stereo not drawn)
  0.19	nt
- Cn1ccsc1=NC(=O)Cn1cnc2ccccc2c1=O
  nt	-0.75
- Cc1cc(Nc2ccccc2)c2ccccc2n1
  -1.6	0.8
- FC(F)(F)c1cccc(Cc2c[nH]c(=S)s2)c1
  nt	-0.7
- CC1CCCCC1NC(=O)CSC1=Nc2ccccc2C2CC=NN12 (stereo not drawn)
  nt	-1.3
- N#CCC(=O)c1ccco1
  nt	-0.15
- O=C(OCN1C(=O)c2ccccc2C1=O)c1cc[n+]([O-])cc1
  nt	-0.45
- NC(=Nc1cc(Cl)ccc1Cl)SCc1ccccc1
  -0.15	nt
- N#CC1=C(N)OC(N)=C(C#N)C1c1cc(Br)cs1
  -2.1	-0.8
- CC(=O)N1c2ccccc2N=C(c2ccccc2)CC1c1ccccc1 (stereo not drawn)
  -0.48	nt
- CC(C)c1nc2ccccc2c2c1C(=O)N(CCc1c[nH]c3ccccc13)C2=O
  -0.99	nt
- COC(=O)c1ccc(OCC(=O)NCC(F)(F)F)cc1
  nt	1.2
- CCCOCCOC(=O)NNC(=O)c1noc(C)c1-c1csc(C)n1
  0.37	nt
- O=c1ncn(-c2ncc(C(F)(F)F)cc2Cl)[nH]1
  -0.4	-0.2
- O=C(Nc1nc2ccc(Cl)cc2s1)c1ccc(S(=O)(=O)N2CCCCC2)cc1
  1.1	1.2
- CCCCNC(=O)c1ccccc1NC(=O)CC
  7.9	-1.1
- NC(=O)C1CCN(C(=O)c2ccco2)CC1
  -0.82	1.7
- COc1ccc2oc(=O)c(C(=O)NC(C)(C)C)cc2c1
  14	-0.45
- CC(/C=C/c1ccccc1)=N\O
  -0.34	nt
- Cc1[nH]c(=S)n(CC2CCCO2)c1C (stereo not drawn)
  nt	1.4
- NS(=O)(=O)c1ccc(CCNC2CC(=O)N(Cc3cccs3)C2=O)cc1 (stereo not drawn)
  0.42	-0.95
- CSc1cccc(N2C(=O)CSC2=O)c1
  -0.18	0.85
- Cc1cccc(NC2=NC3CS(=O)(=O)CC3S2)c1 (stereo not drawn)
  -1.3	-0.4
- CC[n+]1c(C)oc2ccc(OC)cc21
  nt	0.05
- Cc1cc(C(=O)O)c(CSCc2cc(C(=O)O)oc2C)o1
  0.015	-0.2
- CC(Sc1nc2ccccc2c(=O)n1Cc1ccco1)C(=O)c1ccc(F)c(F)c1 (stereo not drawn)
  nt	1.5
- CCOC(=O)C1=C(C)NC(C)=C(C(=O)OCC)C1c1cn(-c2ccccc2)nc1-c1ccc(OCC)c([N+](=O)[O-])c1
  -0.16	nt
- CCN(CCO)c1nc(NC2CCCCC2)c2cnn(C)c2n1
  nt	-2.1*
- Cc1cc(C)nc(SC(C(=O)c2ccccc2)c2ccccc2)n1 (stereo not drawn)
  0.18	0.75
- O=C(Nc1cccc(C(=O)O)c1)/C(=C\c1ccc2c(c1)OCO2)NC(=O)c1ccc(Br)cc1
  -0.6	nt
- O=C(NCCc1ccccc1)C1CCC(CNS(=O)(=O)c2cccc3cccnc23)CC1 (stereo not drawn)
  0.15	0.7
- O=C(Oc1ccccc1OC(=O)C1C2CCCCC21)C1C2CCCCC21 (stereo not drawn)
  0.47	0.05
- N#CC1=C(N)OC2=C(C(=O)CCC2)C1c1ccc(N2CCOCC2)c([N+](=O)[O-])c1 (stereo not drawn)
  -0.14	nt

Further records follow.
Below each SMILES – CapD inh	AID504770
- CC(=O)Oc1ccc(C(=O)N(Cc2nc(-c3cccc(C)c3)no2)C(C)C)cc1
  0.34	0.1
- Cc1ccc(C=Nc2cc(Cl)ccc2O)o1
  -0.81	1.9
- CC1(C)CC(=O)C(C2(O)C(=O)NC(=O)NC2=O)=C(O)C1
  nt	-0.25
- O=C1C2C3c4ccccc4C(CO)(c4ccccc43)C2C(=O)N1c1ccccc1Cl (stereo not drawn)
  -0.04	nt
- Fc1ccc(Cn2c3ccc(Br)cc3c3nc4ccccc4nc32)cc1
  0.25	nt
- CCC(=O)Nc1nc(C)cc2c1c(=O)oc1ccccc12
  0.33	nt
- CN(NS(=O)(=O)c1ccc(Cl)c(Cl)c1)c1cccc(F)c1C#N
  -0.17	-0.15
- O=C(Nc1nc(-c2cc([N+](=O)[O-])cs2)cs1)c1cc(-c2cccs2)nc2ccccc12
  0.77	nt
- COc1ccccc1NC(=S)NNC(=O)NNC(=S)Nc1ccccc1OC
  0.32	nt
- C=C(C)CC1N(CCc2ccccc2)C(=O)C2C(C(=O)O)C3C=CC21O3 (stereo not drawn)
  nt	2
- c1cc2c(cc1CCNC1CCCCCC1)OCO2
  -0.11	-0.3
- COc1cccc(=O)c2c(C)oc(C)c12
  nt	-0.2
- O=C(Oc1c(CN2CCOCC2)cc(Cl)c2cccnc12)c1ccccc1
  nt	0.45
- COc1cc(/C=c2\sc3nc4ccccc4n3c2=O)cc(Cl)c1OCCOc1ccccc1C
  0.7	nt
- COc1cc(C2C3=C(CC(C)(C)CC3=O)OC3=C2C(=O)CC(C)(C)C3)c(Cl)cc1O
  -0.36	nt

One compound at a time, as listed above.
COc1ccccc1NC(=S)NNC(=O)NNC(=S)Nc1ccccc1OC is entered as CapD inh = 0.32; AID504770 = nt
CN(NS(=O)(=O)c1ccc(Cl)c(Cl)c1)c1cccc(F)c1C#N is entered as CapD inh = -0.17; AID504770 = -0.15
COc1cccc(=O)c2c(C)oc(C)c12 is entered as CapD inh = nt; AID504770 = -0.2

More entries.
Below each SMILES – CapD inh	AID504770
- CN(C)C(=O)Oc1ccc2cc(Br)ccc2c1Br
  -0.33	-0.8
- Oc1ccc(C(CCl)n2cncn2)cc1 (stereo not drawn)
  0.75	0.05
- Cc1ccc(NC(=O)CSc2nnc(NC(=O)c3cccs3)s2)cc1
  0.18	-0.2
- O=C1C(=Cc2cn[nH]c2-c2ccccc2)C(=O)c2ccccc21
  -0.075	-0.95
- CC(C)c1cc(C(C)C)c(S(=O)(=O)N2CCCC2)c(C(C)C)c1
  -0.36	-0.3
- COc1ccccc1-c1c(C)nn2c(NCCN3CCN(Cc4ccccc4)CC3)cc(C)nc12
  2.5	0.35
- C=C1C2CC3(C[C@H]4C5C6(C3CC2=O)C4[N+]([O-])(CC)C[C@]5(C)CC[C@@H]6O)[C@@H]1O (stereo partly drawn)
  0.66	-0.15
- CCOC(=O)c1cc2cccc(Cl)c2[nH]1
  1.9	-1.1
- CC(NC(=O)Cn1c(=O)oc2cc(S(=O)(=O)N(C)C)ccc21)c1ccccc1 (stereo not drawn)
  nt	0.35
- CC1=C(C(=O)OCc2ccccc2)C(c2ccccc2)C(C#N)=C(N)O1 (stereo not drawn)
  -0.035	nt
- CCN(CC)C1=C(C(=O)c2ccccc2)NS(=O)(=O)c2ccccc21
  nt	-0.95
- CCOc1ccc(OCC(=O)NCCc2nc3ccccc3[nH]2)cc1
  -0.61	1.1
- COC(=O)C1=C(C)NC2=C(C(=O)CC(c3ccccc3)C2)C1c1ccccc1OC(C)C (stereo not drawn)
  0.5	0.25
- CC(C)C[C@H](NC(=O)OCC1c2ccccc2-c2ccccc21)C(=O)O
  0.47	nt
- COc1cccc(C=NC2CCN(Cc3ccccc3)CC2)c1OC
  0.35	0.25
- Cc1nc(C(=O)NNC(=O)OC/C=C/COCc2ccccc2)cs1
  0.55	nt
- N#Cc1ccc(C(=O)Nc2cc(-c3nc4ncccc4o3)ccc2Cl)c(F)c1
  -0.14	nt
- CC(C)(C)c1ccc(CN2CCN(C(=O)CSCC(=O)O)CC2)cc1
  1.1	nt
- Cc1ccc(-c2nc(-c3ccc4c(c3)C(=O)c3ccccc3-4)c(-c3ccccc3)[nH]2)cc1
  0.56	nt
- COc1ccccc1NS(=O)(=O)c1cccc(Cl)c1Cl
  -0.55	nt
- COc1ccccc1C(=O)n1nc(C)cc1C
  5.8	-0.45
- CC1=C(C(=O)OC2CCCC2C)C(c2ccccc2I)NC(=O)N1C (stereo not drawn)
  0.25	nt
- COc1cccc(N2C(=O)/C(=C/c3ccsc3)C(=O)NC2=S)c1
  0.21	1.1
- Cc1ccc(C(=O)OC[C@H]2O[C@H](c3nnc4ncccn34)C[C@@H]2OC(=O)c2ccc(C)cc2)cc1
  0.31	0.3
- COc1ccc(NC(=O)/C=C/C(=O)O)cc1Cl
  0.4	nt
- C=CCn1c(=O)n(CCOC)c(=O)c2sc3ccccc3c21
  83	-0.8
- CSc1nnc(-c2ccccc2O)n1-c1ccccc1
  0.28	0.4
- Cc1cc(OCC(=O)Oc2c(C)cc(Br)cc2Cl)no1
  nt	0.3
- Cc1ccsc1/C=C1/NC(=O)NC1=O
  -1.4	nt
- O=C(NCc1csc(-c2cccs2)n1)c1cc(F)cc2c1OCOC2
  53	1.5
- O=C(c1ccco1)c1cc2cc(Br)ccc2oc1=O
  -0.51	0.2
- COc1cc(/C=N/NC(=O)Cc2csc(-c3ccccc3)n2)ccc1OCc1ccc([N+](=O)[O-])cc1
  0.41	nt
- NC(=O)COc1ccc(-c2noc(COc3cccc(Cl)c3)n2)cc1
  0.39	1.8
- O=C(Nc1ccc(-c2nc3ccc(NC(=O)C4CC4)cc3[nH]2)cc1)C1CC1
  nt	0.2
- Cc1ccc(NC(=O)c2ccccc2[N+](=O)[O-])c([N+](=O)[O-])c1
  -1.2	nt
- CCCCn1cnc2c(cnn2-c2ccc(Cl)cc2)c1=O
  -0.89	-0.6
- COc1cc([N+](=O)[O-])ccc1-c1ccc(/C=C2\C(=O)NC(=S)N(c3ccccc3)C2=O)o1
  0.06	nt
- Cc1ccc(S(=O)(=O)Nc2cccc3c(O)cccc23)cc1
  -1.8	-0.85
- O=C(c1ccccc1)N(Cc1nc(-c2ccccc2)no1)C1CCCCC1
  0.93	-0.4
- O=C1NC(=O)N(c2ccccc2)C(=O)/C1=C\c1ccc(C(=O)O)cc1
  0.82	-0.05
- O=[N+]([O-])c1cccnc1Sc1cc(Cl)ccc1Cl
  0.27	nt
- NN/C(=N/S(=O)(=O)c1ccccc1)N1CCCC1
  -0.32	1.1
- COC(=O)C1C(=O)C2=C(CC1C)NC(=O)CC2c1ccccc1 (stereo not drawn)
  0.52	1.5
- C=CCc1ccccc1OCC(CN1CCCCC1)OC(C)=O (stereo not drawn)
  nt	-0.75
- N#C/C(=C\O)c1nc2ccccc2s1
  -3	nt
- Cc1ccc(N2CCN(C(=O)CN(c3ccc(C)cc3)S(=O)(=O)c3c(C)n[nH]c3C)CC2C)cc1 (stereo not drawn)
  -0.45	-1.6
- O=S(=O)(Nc1cccc2ccccc12)c1cccc2nonc12
  1	-1.1
- Cc1ncc([N+](=O)[O-])n1CCNC(=O)OCC1CCCN(Cc2ccc3ccccc3c2)C1 (stereo not drawn)
  -0.83	nt
